Screening data as filed in PubChem BioAssay.
CBX7 AlphaScr: blocks human CBX7 binding to H3K27me3 peptide. AlphaScreen His6-CBX7 / biotin-H3K27me3 peptide binding; hits give low values. normalised signal (fraction of DMSO) (concentration not given with the values). 66,000 tested, 1.1% active; in the data active means normalised signal below about 0.5;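 further: 100 nL library stock added to about 20 µL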
Target sequence (O95931 whole entry, looked up): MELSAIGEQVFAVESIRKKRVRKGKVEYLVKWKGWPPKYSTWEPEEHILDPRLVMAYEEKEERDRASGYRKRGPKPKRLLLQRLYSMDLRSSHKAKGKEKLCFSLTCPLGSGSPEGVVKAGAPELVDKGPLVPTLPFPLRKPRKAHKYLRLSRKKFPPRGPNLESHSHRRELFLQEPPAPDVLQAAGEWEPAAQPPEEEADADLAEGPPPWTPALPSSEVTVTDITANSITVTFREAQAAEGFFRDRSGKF
CBX7 AlphaScr z-score: further read-out of CBX7 AlphaScr, marked with its call; z-score; measured here: z-score of CBX7 signal; some inactives read as strong as hits; reference of the scale not given here;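 same signal on another scale; lower means less binding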
Numbers without * were called inactive; & = joins results of further samples. These rows are one share of the data (hit frequency here may not be typical).

The first three records, to show the layout:
canonical_smiles	CBX7 AlphaScr	CBX7 AlphaScr z-score
COCCCNC(=O)c1cc(-c2ccc(C)c(C)c2)nc2ccccc12	1.1	0.98
CC(C)CNC(=O)C1CC(=O)N(c2ccc(OCC(=O)NCc3ccccc3)cc2)C1 (centres undefined)	1	0.0081
COC(CNC(=O)c1cc(Nc2cc(C)cc(C)c2)nc2ccccc12)OC	1	0.15

Results, from the first entry:
canonical_smiles	CBX7 AlphaScr	CBX7 AlphaScr z-score
COCCCNC(=O)c1cc(-c2ccc(C)c(C)c2)nc2ccccc12	1.1	0.98
CC(C)CNC(=O)C1CC(=O)N(c2ccc(OCC(=O)NCc3ccccc3)cc2)C1 (centres undefined)	1	0.0081
COC(CNC(=O)c1cc(Nc2cc(C)cc(C)c2)nc2ccccc12)OC	1	0.15
CCOc1ccc2c(c1)c(=O)c(S(=O)(=O)c1ccc(C)cc1)cn2CC(=O)Nc1ccc(F)cc1	1	0.36
CCc1ccc(-c2nc(CN3CCC(C(=O)NCCc4ccc(Cl)cc4)CC3)c(C)o2)cc1	0.89	-1.2
COc1ccc(OC)c(C2CC(=O)NC3=C2C(=O)CC(C)(C)C3)c1 (centres undefined)	1.1	2
O=C1CN(C(=O)COc2ccc(Cl)cc2)C(c2ccc(F)cc2)c2cc(Cl)ccc2N1 (centres undefined)	0.75	-2.4
CCCC1=Nc2cc(C(=O)NCc3ccccc3Cl)ccc2Sc2ccccc21	0.87	-1.9
CC(=O)Nc1nonc1-c1nc2ccccc2n1CC1CC1	1.1	0.94
Cc1ccc(NC(=O)C2CCN(S(=O)(=O)c3cccc4cccnc34)CC2)cc1C	0.97	-0.38
CC(c1ccccc1)n1c(-c2cccc(Br)c2)nc2ccccc21 (centres undefined)	1	0.59
CCCC(O)(CCN1CCCCCC1)c1ccc(Br)cc1 (centres undefined)	1.1	2.4
COc1ccccc1Nc1ncc(C(=O)N2CCN(Cc3ccccc3)CC2)c2ccccc12	1	0.35
CCCCNC(=O)C(CC)n1c(SCc2cccc(F)c2)nc2ccncc21 (centres undefined)	1.1	1.8
CCc1cccc(C)c1Nc1c(-c2ccc(O)cc2)nc2sccn12	0.87	-5.1
CCCNC(=O)Cn1cnc2sc(C(=O)N(C)CCc3ccccn3)c(C)c2c1=O	1	0.4
O=C(CSc1ncnc2sc3c(c12)CCC3)NCc1ccc2c(c1)OCO2	0.97	-0.035
COc1ccc(Cl)cc1NC(=O)CN1C(=O)CSc2ncccc21	1	0.038
Cc1ccccc1N1C(=O)C2C3C=CC(O3)C2C1=O (centres undefined)	1.3	2.1
COc1cccc(-n2cc(-c3ccc(Cl)cc3)[nH]c2=O)c1	0.96	-1.3
CC(NC(=O)c1cc(-c2cccc(Br)c2)nc2ccccc12)c1ccccc1 (centres undefined)	1.2	0.55
COc1ccc(CNc2cc(C)nc3c(-c4ccc(OC)c(OC)c4)c(C)nn23)cc1	0.92	-0.21
Cc1ccc(-c2nc3sccn3c2Nc2ccccc2)cc1	0.9	-2.1
CCOC(=O)c1[nH]c(C)c(C(=O)NC2CCCCC2)c1C	1	0.56

Molecules above that have a thiophene ring, fused or not:
canonical_smiles	CBX7 AlphaScr	CBX7 AlphaScr z-score
CCCNC(=O)Cn1cnc2sc(C(=O)N(C)CCc3ccccn3)c(C)c2c1=O	1	0.4
O=C(CSc1ncnc2sc3c(c12)CCC3)NCc1ccc2c(c1)OCO2	0.97	-0.035

Next results
canonical_smiles	CBX7 AlphaScr	CBX7 AlphaScr z-score
CCC(C)NC(=O)c1oc2ccc(S(=O)(=O)N3CCCC(C)C3)cc2c1C (centres undefined)	0.86	-2.6
CC1(C)CC(=O)N(CC(=O)N2CCCC2)c2ccccc2S1(=O)=O	1	0.13
CC(C)(C)n1nc2c(c1NC(=O)CCc1ccccc1)CSC2	0.97	-1.6
Cc1ccc2oc(-c3cc(NC(=O)CC(C)C)ccc3Cl)nc2c1	1.1	2.9
O=C(Nc1ccccc1C(F)(F)F)N1CCN(c2ccc3nncn3n2)CC1	0.96	-0.81
CCCCCCC(C)NC(=O)c1c(-c2ccccc2)noc1C (centres undefined)	1	0.36
CCc1cccc(-n2c(C)nc3c(cnn3-c3ccccc3Cl)c2=O)c1	0.8	-3
COc1ccccc1CNC(=O)CN1C(=O)CSc2ccc(S(=O)(=O)N3CCCC3)cc21	0.94	-1.4
COc1ccc(C(=O)c2oc3ccccc3c2NC(=O)COc2cccc(C)c2)cc1	1.2	3.8
CCOc1ccccc1OCCc1c(C)n[nH]c1C	0.94	-1.2
NC(=O)C1CCN(C(=O)c2ccc3c(=O)n(CCc4ccccc4)c(=O)[nH]c3c2)CC1	1.1	1.8
CCCNC(=O)c1ccc2c(c1)nc(C)n2-c1cccc(F)c1	1	0.25

Molecules from the list above that contain an aryl thioether with sulfur outside any ring:
canonical_smiles	CBX7 AlphaScr	CBX7 AlphaScr z-score
CCCCNC(=O)C(CC)n1c(SCc2cccc(F)c2)nc2ccncc21 (centres undefined)	1.1	1.8
O=C(CSc1ncnc2sc3c(c12)CCC3)NCc1ccc2c(c1)OCO2	0.97	-0.035

Carrying on:
canonical_smiles	CBX7 AlphaScr	CBX7 AlphaScr z-score
CC(=O)Nc1ccc(S(=O)(=O)Nc2nccc(/C=C/c3ccc(Cl)cc3)n2)cc1	0.83	-0.79
Cc1ccc(N2C(=O)c3ccc(C(=O)Nc4ccc5c(c4)OCO5)cc3C2=O)cc1C	0.7	-1.4
Cc1ccc(C(=O)Nc2cccc(-c3nc4cc(C)c(C)cc4o3)c2)cc1	1.1	2.7
CC1CCN(c2oc(COc3ccc(Cl)cc3)nc2C#N)CC1	0.36*	-4*
CCCNC(=O)C1CCN(S(=O)(=O)c2c(C)noc2/C=C/c2cccs2)CC1	0.94	-0.13
CCCNC(=O)c1cc(-c2ccc(OC)cc2)on1	1.3	1.6
CC1CCCCC1NC(=O)c1cc2c(s1)-c1ccccc1OC2 (centres undefined)	1.5	7.2
NS(=O)(=O)c1ccc(CCNC(=O)C2CCCN(S(=O)(=O)c3cccnc3)C2)cc1 (centres undefined)	1.1	2.3
O=C1CC(N2CCN(c3ccccn3)CC2)C(=O)N1c1ccc(F)cc1 (centres undefined)	1.2&1	2.3&0.43
CCOc1cc2c(cc1OCC)C(c1ccccc1Cl)CC(=O)N2 (centres undefined)	0.97	-0.41
O=C(CSc1nc2ccccc2nc1Cc1ccc(F)cc1)c1ccccc1	0.89	-0.49
O=C(NCCc1ccc(Cl)cc1)C1CCC(=O)N1C1CCCC1 (centres undefined)	1.1	2.3
N#CCc1ccc(NC2c3ccccc3C(=O)N2Cc2ccccc2)cc1 (centres undefined)	0.74	-7.1
Cc1cc(N2CCC(C)CC2)nc2ccc(NC(=O)CCC(=O)NCCCOC(C)C)cc12	1	1.2
O=c1c2ccccc2nc(N2CCN(Cc3ccccc3)CC2)n1Cc1ccccc1	0.83	-0.35
Cc1ccc(CNC(=O)c2nc(-c3ccc(C)cc3)oc2C)cc1	1.1	2.1
CC(=O)NCCNC(=O)CCCCCn1c(=O)[nH]c2ccsc2c1=O	1.2	1.4
Cc1ccc(CNC(=O)C2(S(=O)(=O)c3ccc(C)cc3)CC2)cc1	1.1	3.1
O=C1CCc2cc(S(=O)(=O)Nc3cccc(Cl)c3)ccc2N1	1	0.33
Cc1ccc(-c2nc3ccccc3s2)cc1NC(=O)c1ccc(Br)cc1	1.1	2.9
O=C(CCS(=O)(=O)c1nc(-c2ccc3c(c2)OCO3)cc(C(F)(F)F)n1)Nc1ccccc1F	1.1	0.72
COc1ccccc1NC(=O)Nc1nnc(N2CCCCCC2)s1	0.82	-0.7
CCN1CCCC1CNC(=O)CN1C(=O)COc2ccc(C(C)(C)C)cc21 (centres undefined)	1.1	1.8
CC(C)Cc1cc(C(=O)Nc2cc(C(F)(F)F)ccc2Cl)no1	1.6	12
O=C(Cn1nc(-c2ccccc2)c2ccccc2c1=O)NCCN1CCOCC1	0.94	-0.6
O=C(CCNC(=O)Cn1ccc2ccccc2c1=O)NCCN1CCN(c2cccc(Cl)c2)CC1	0.94	-1.4
CCN(CCNC(=O)c1cc(Nc2ccc(OC)cc2OC)nc2ccccc12)c1ccccc1	0.67	-5.1
CCOc1ccc2nc(N3CCC(C(=O)NCc4ccc(OC)cc4)CC3)sc2c1	0.99	-0.066
CCCCNC(=O)CN1C(=O)CSc2ccc(S(=O)(=O)N3CCCCCC3)cc21	1	0.57
O=C(CSc1nc2ccccc2[nH]1)Nc1ccc(Cl)c(C(=O)O)c1	0.98	-0.021
CCCCNS(=O)(=O)c1ccc2nc(-c3cccnc3)cc(C(=O)NC(C)CC)c2c1 (centres undefined)	0.95	-1.1
O=C(Cc1ccc(Br)cc1)N(Cc1ccccc1)c1ccccn1	1.1	0.69
O=C(C1CCC1)N1CCc2cc(S(=O)(=O)N(CCc3ccccc3)Cc3ccccc3)ccc21	1.2	5.5
CCOc1ccccc1NC(=O)CN1CC(c2ccccc2)CC1=O (centres undefined)	0.97	-0.64
Cc1cccc(-n2ccnc2SCC(=O)NC2CCCC2)c1	1.1	0.052
O=C(NCc1ccccn1)c1cc2c(s1)CS(=O)(=O)C2	0.92	-1.5
CC(=O)Nc1ccccc1-c1nc2ccc(C(=O)NCc3ccccc3Cl)cc2[nH]c1=O	1.1	2.2
COc1ccc(NC(=O)CSc2nc3ccccc3nc2Cc2ccccc2OC)cc1Cl	0.98	-0.27
CCOc1ccc(-n2nc(C(=O)Nc3ccc(C(C)C)cc3)c3ccccc3c2=O)cc1	0.97	-0.35
COc1ccc(-c2cc(C(F)(F)F)nc(-n3cc(Br)cn3)n2)cc1	1	1.1
CCC(=O)N1CCc2cc(S(=O)(=O)NC(CC(C)C)C(=O)N(C)Cc3ccccc3)ccc21 (centres undefined)	0.98	-0.78
CCN(CC)CCNC(=O)c1cnn(-c2ccccc2)c1-n1cccc1	1.1	3.1
Cc1ccccc1C(=O)Nc1ccc2oc(-c3ccc(F)cc3F)nc2c1	0.96	-2.1
COc1ccc(Cl)cc1NC(=O)c1c(NCc2cccnc2)sc2c1CCCCC2	0.89	-5.9
CCOC(=O)c1cc(-c2ccccc2)n(CC(=O)N(C)c2ccc(OC)cc2)c1C	0.85	-3
CCCCNC(=O)C1CC(=O)N(CCc2ccc(C)cc2)C1 (centres undefined)	0.96	-1.1
Cc1ccc(-n2cc(-c3ccc(Br)cc3)[nH]c2=O)cc1Cl	1	0.34
Cc1ccc(NS(=O)(=O)c2ccc3c(c2)CCN3C(=O)CCC(=O)O)cc1F	0.96	-0.91
Cc1cccc(-c2nc3c(cnn3-c3ccccc3)c(=O)n2-c2ccc(Cl)cc2)c1	0.86	-5.7
COc1ccc(C(NC(=O)CC(C)C)c2ccc3cccnc3c2O)cc1OC (centres undefined)	0.061*	-3.3*
CC1CCN(C2CC(=O)N(c3ccc(C(=O)O)cc3)C2=O)CC1 (centres undefined)	0.91	-1.4
O=C(CN1C(=O)c2ccccc2S1(=O)=O)Nc1ccc(OCc2ccccc2)cc1	0.97	-0.88
COc1cccc(NC(=O)CCc2c(C)nc3c(-c4ccc(F)cc4)c(C)nn3c2C)c1	1.2	6.3
O=C(NCc1nnc(SCc2cccnc2)o1)c1ccccc1F	1	0.5
COc1ccc(Oc2cc([N+](=O)[O-])cc3c2C(=O)Nc2cc(Cl)ccc2O3)cc1	0.42*	-11*
CCCCCCCCCC1NC(C(=O)O)Cc2c1[nH]c1ccccc21 (centres undefined)	0.88	-1.3
Cc1ccc(-n2c(C)nc3c(cnn3-c3ccc(F)cc3)c2=O)cc1F	0.99	-0.17
COc1ccc(-c2nc3sccn3c2Nc2ccc3c(c2)OCCO3)cc1	0.65	-13
CCOC(=O)CNC(=O)CSc1nnc(Cc2cc(=O)[nH]c(=O)[nH]2)n1-c1cc(C)ccc1C	1.2	0.34
C=CCNC(=O)C1CC(=O)N(c2ccc(OCC(=O)Nc3cccc(C(F)(F)F)c3)cc2)C1 (centres undefined)	0.98	-0.34

(cont.)
canonical_smiles	CBX7 AlphaScr	CBX7 AlphaScr z-score
Cc1cccc(C(=O)NCCCc2nc3ccccc3[nH]2)c1	1.2	1.8
Cc1ccc(NC(=O)CN(C)S(=O)(=O)c2ccc3nc(C)sc3c2)c(C)c1	1.2	1.2
CCc1ccc(-c2nc(CN3CCCC(C(=O)NCc4ccccc4OC)C3)c(C)o2)cc1 (centres undefined)	0.73	-3.3
CCOC(=O)c1cc(-c2ccc(OC)cc2)n(CCC(=O)NCc2ccc3c(c2)OCO3)c1C	0.97	-0.28
CC1=Nc2cc(C(=O)N3CCc4ccccc43)ccc2Sc2ccc(Cl)cc21	0.92	-1.3
CCCCn1c(=N)n(CC(=O)c2cccs2)c2ccccc21	0.99	-0.063
O=C(CSc1nnc(-c2ccc(Cl)cc2)o1)N1CCc2ccccc21	0.91	-0.2
CCSc1oc(-c2cccs2)nc1S(=O)(=O)c1ccc(Br)cc1	0.91	-0.15
COc1ccc(-c2nc(S(=O)(=O)c3ccccc3)c(N3CCCCCC3)o2)cc1	0.85	-3.9
CCc1cccc(C)c1NS(=O)(=O)c1ccc2c(c1)n(C)c(=O)c(=O)n2C	1.1	1
O=C(c1ccc2c(c1)N(Cc1ccccc1)C(=O)c1ccccc1S2=O)N1CCc2ccccc2C1 (centres undefined)	0.79	-5.5
COCCCNC(=O)CC1Sc2ccccc2NC1=O (centres undefined)	1.1	1.9
O=C(Cc1cccs1)Nc1c2c(nn1-c1cccc(Cl)c1)CSC2	0.99	-0.68
COc1ccc(-c2noc(CCC(=O)N3CCN(c4ccc(F)cc4)CC3)n2)cc1	0.9	-0.097
